# Bioassay records as filed in PubChem BioAssay.
# D2 ag: activates the human D2 dopamine receptor; activation, % (no concentration beside the values); DiscoveRx PathHunter D2 beta-arrestin, luminescence, 90 min; 100% = 57 uM dopamine signal; P14416; 360,000 compounds, 0.084% hits; AID 624465; in the data active = activation above about 40%; inconclusive = about 15% to 40%; inactive = below about 15%; further: compound concentration not given in the record; the text of the record calls up to 30% inactive
# Target sequence (P14416 whole entry, looked up): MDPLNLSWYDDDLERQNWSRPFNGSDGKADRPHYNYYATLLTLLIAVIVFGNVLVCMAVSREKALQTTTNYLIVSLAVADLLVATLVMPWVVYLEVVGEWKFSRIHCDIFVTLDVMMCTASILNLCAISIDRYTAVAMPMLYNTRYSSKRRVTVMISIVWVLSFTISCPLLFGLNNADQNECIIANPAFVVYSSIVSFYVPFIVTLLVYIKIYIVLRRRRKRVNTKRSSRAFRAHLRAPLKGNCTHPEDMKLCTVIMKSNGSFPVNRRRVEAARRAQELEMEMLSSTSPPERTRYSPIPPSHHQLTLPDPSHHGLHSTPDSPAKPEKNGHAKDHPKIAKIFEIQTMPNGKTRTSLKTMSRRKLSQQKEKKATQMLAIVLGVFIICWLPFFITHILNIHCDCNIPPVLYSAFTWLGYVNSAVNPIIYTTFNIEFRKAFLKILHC
#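 Agonist mode: compounds alone added to overnight-plated D2 PathHunter cells for 90 min at 37 C, with 57 uM final dopamine (EC100) defining full response. Beta-arrestin recruitment detected by chemiluminescent reagent, read after 1 h at ambient temperature.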
# CtBP-E1A blk: CtBP/E1A binding inhibition; AlphaScreen GST-E1A/His-CtBP binding, 1536-well; stronger effect = lower value; control for the full effect not named in the record; activity change, % (test concentration not listed); 340,000 compounds, 0.49% hits; AID 651724; in the data active means activity change below about -65%; inconclusive means about -30% to -65%; inactive means above about -30%; further: on the % scale 0 is the no-effect control and ±100 the full control effect
#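 GST-E1A and His-tagged CtBP (125 nM each as 5X stock) were preincubated with pin-transferred compound for 2 h at 37 °C in the dark, then glutathione donor and nickel acceptor beads were added for 1 h before AlphaScreen reading.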
# Six1-Eya2 inh: Six1/Eya2 interaction inhibition. AlphaScreen GST-Six1/His-Eya2 binding, biochemical; stronger effect = lower value; control for the full effect not named in the record. 360,000 compounds, 0.56% hits. Q15475+O00167. activity change, % (concentration not given with the values); in the data active = activity change below about -65%; inconclusive = about -30% to -65%; inactive = above about -30%; further: on the % scale 0 is the no-effect control and ±100 the full control effect
#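 AlphaScreen with GST-Six1 and His-Eya2 (5X mix: 250 nM and 500 nM), glutathione donor and nickel acceptor beads; buffer 50 mM Tris pH 8.0, 300 mM NaCl, 1 mM TCEP; 1 h at 37 C in the dark.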
# TRPML1 agonist: activates the human TRPML1 channel | Q9GZU1 | TRPML1-expressing cells, Ca2+ dye fluorescence, FDSS; host cell line not named in the record; reference of the full effect not given here | activation, % (concentration not given with the values) | 410,000 compounds, 0.12% hits | AID 624414; in the data active = activation above about 50%; inconclusive = about 30% to 50%; inactive = below about 30%; further: 0% is about no effect; the text of the record puts the active cut at 80%
# Target sequence (Q9GZU1 whole entry, looked up): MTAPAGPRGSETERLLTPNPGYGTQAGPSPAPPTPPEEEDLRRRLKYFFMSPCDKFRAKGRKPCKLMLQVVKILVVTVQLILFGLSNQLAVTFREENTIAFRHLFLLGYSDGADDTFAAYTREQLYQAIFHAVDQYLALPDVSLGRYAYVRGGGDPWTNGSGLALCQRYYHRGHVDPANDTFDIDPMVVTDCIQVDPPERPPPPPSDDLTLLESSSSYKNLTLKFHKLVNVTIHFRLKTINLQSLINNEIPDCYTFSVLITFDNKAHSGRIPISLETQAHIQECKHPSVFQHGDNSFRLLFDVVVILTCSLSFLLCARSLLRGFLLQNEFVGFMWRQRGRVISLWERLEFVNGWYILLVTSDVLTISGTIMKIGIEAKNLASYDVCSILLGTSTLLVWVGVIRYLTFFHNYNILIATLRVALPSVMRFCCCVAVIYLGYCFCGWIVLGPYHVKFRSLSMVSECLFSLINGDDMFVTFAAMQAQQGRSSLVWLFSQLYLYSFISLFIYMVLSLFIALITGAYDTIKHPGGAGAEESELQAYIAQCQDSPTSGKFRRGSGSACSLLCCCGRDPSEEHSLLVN
#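 TRPML1-DL cells, Tet-induced overnight (~16 h, 37 degrees C), loaded 45-90 min at room temperature with Ca8 no-wash calcium dye plus quencher. FDSS fluorescence: 10 s baseline, compound pin-transfer, 110 s agonist read, then EC80 54-4 (4uM final) and 110 s antagonist read.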
# TRPML1 blocker: inhibitors of human TRPML1 channel. TRPML1-inducible cells, Ca2+ dye fluorescence, FDSS; stronger effect = lower value; inhibition of EC80 agonist-evoked calcium signal. activity change, negative = inhibition, % (concentration not given with the values). 390,000 compounds, 0.02% hits. AID 624415; in the data active means activity change below about -50%; inconclusive means about -30% to -50%; inactive means above about -30%;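 further: stimulus is agonist 54-4 at its EC80 concentration; on the % scale 0 is the no-effect control and ±100 the full control effect; the text of the record puts the active cut at -80%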
#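 TRPML1-DL cells, Tet-induced overnight (~16 h, 37 °C) at 1,500 cells/well, were loaded with Ca8 no-wash dye plus quencher for 45-90 min at room temperature. Compounds were pinned during FDSS kinetic reading; agonist 54-4 at EC80 (4 uM final) then added.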
# PINK1 expr mod: modulators of PINK1 expression | PINK1 immunofluorescence, high-content cytometry, 24 h | Potency, µM (doses to about 76.6 µM), for the others: at the highest dose activation (PINK1 increase), most hits filed as activators | 410,000 compounds, 0.2% hits | AID 624263; active = well fitted activation curve with a large enough effect; inconclusive = small, poorly fitted or top-dose-only effect; inactive = flat fitted curve, though single readings scatter; cell line not stated here;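 further: potency means the concentration at half of the fitted maximal effect; % of control where 0% means no effect; nearly all actives have a fitted effect of over 65% in size; a mitochondrial uncoupler was the plate control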
#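 Compound titrations (5 concentrations, 24 h) on a stable cell line; DMSO and CCCP controls. Endpoint: fixed-cell PINK1 immunofluorescence with mitochondrial, cell and nuclear markers, scanned by microplate cytometer.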
# The depositor's hits bear a star; ? = inconclusive; . = no result given; & = joins results of further samples; [ ] = remark or other dose. No enrichment for hits. Share with any hit: about 1%.
# Every second line gives: Six1-Eya2 inh, D2 ag, CtBP-E1A blk, TRPML1 agonist, PINK1 expr mod, TRPML1 blocker
COc1ccccc1Oc1nc2ccccn2c(=O)c1/C=C(\C#N)C(=O)Nc1c(C)n(C)n(-c2ccccc2)c1=O
    3.7, -0.6, 0.2, -0.2, 1.5%, 12.1
Cc1nn(C(C)C(=O)NCCc2ccccc2)c(=O)c2c1sc1ccccc12 (stereo unspecified)
    ., ., ., 4.2, 0.2%, -5.8
CCOC(=O)c1sc(-c2ccccc2)cc1NC(=O)Nc1ccccc1
    16.3, -1.0, 11.3, 0.6, 15.2%, -9.6
COc1ccc(C2(c3ccc(OC)cc3)NC(=O)N(CC(=O)N(C)C)C2=O)cc1
    5.0, -2.1, 1.1, 0.3, -0.8%, -17.5
COc1ccc(/C=N/Nc2cc(C)nc3ccc(Br)cc23)cc1
    -6.5, ?, -13.1, 3.1, -1.8%, 10.2
CC(C)c1nc(N2CCOCC2)c(C#N)c2c1CCC2
    10.9, -1.7, 3.7, 1.4, 0.7%, 26.6
Cc1sc2nc(-c3cccs3)oc(=O)c2c1C
    3.4, -4.7, 3.4, -0.5, 4.7%, 8.0
CN(CCOc1ccc(Cl)cc1)CC(O)c1ccccc1 (stereo unspecified)
    5.7, -1.6, 2.2, 0.9, 1.8%, 2.9
O=C(Nc1nc2ccccc2[nH]1)c1ccc(Cl)c(S(=O)(=O)N2CCCC2)c1
    ?, -3.2, -72.9*, 1.4, 0.1%, 4.6
Cc1cc(NC(=O)CSc2nc3ccccc3c(=O)n2-c2ccccc2)no1
    5.9, 1.9, 4.1, 0.8, 9.8%, 12.0
CCOC(=O)c1cc(C#N)c(N2CCN(C(=O)c3ccccc3)CC2)nc1C(F)(F)F
    6.9, -6.9, 14.2, 2.2, 0.1%, 7.0
CCCCCOc1ccc(/C=C/c2c([N+](=O)[O-])c(=O)n(C)c(=O)n2C)cc1
    6.9, 0.7, 14.6, -0.5, 5.4%, 0.7
COC(=O)CCCn1cc(CN2CC(N3CCN(C)CC3)CS2(=O)=O)nn1 (stereo unspecified)
    12.9, ., -1.8, 0.2, 0.2%, .
COc1ccccc1NS(=O)(=O)c1ccc(C(=O)N2CCCC(C(F)(F)F)C2)cc1 (stereo unspecified)
    -6.5, 0.0, -4.5, 3.0, 0.8%, -5.3
O=S(=O)(NCCc1ccc(F)cc1)c1cc(C(F)(F)F)ccc1Br
    5.2, -0.9, 0.9, 0.4, 6.9%, 0.0
Cc1ccc(-c2nn(CC(=O)Nc3cccc(C(F)(F)F)c3)c(=O)c3ccccc23)cc1
    ., ., ., 0.5, 6.5%, -9.5
Cc1ccnc(SCc2cc(=O)c(OC(=O)c3ccco3)co2)n1
    0.3, -0.6, -5.9, 0.5, 0.4%, -6.6
CCCCC(=O)Nc1cc2nn(-c3ccc(OCC)cc3)nc2cc1C
    ., ., ., -0.9, 1.9%, -6.0
COc1ccc(CCN2C(=O)NC(NS(=O)(=O)c3ccc(NC(C)=O)cc3)(C(F)(F)F)C2=O)cc1OC (stereo unspecified)
    9.1, -1.2, -3.3, 0.3&-0.1, 0.7%&-0.5%, -17.3&-19.9
CC(C)c1ccc(NC(=O)COc2nncc3ccccc23)cc1
    9.5, -3.1, -5.9, 2.2, 2.4%, -3.8
C=CCNc1ncnc2c1[nH]c1ccc(Cl)cc12
    1.6, -0.1, -1.4, 16.4, 8.1%, -4.0
COc1ccc(S(=O)(=O)NC(C)C)cc1C(=O)NC1CCCCC1
    0.4, -2.2, 2.0, 1.0, 2.7%, 0.2
Cc1cc(S(=O)(=O)NCc2ccc(S(N)(=O)=O)cc2)c(C)s1
    -0.2, -1.3, 0.3, -0.2, -1.8%, 0.1
CC1(C(=O)NNC(=S)NCC2CCCO2)CC1(Cl)Cl (stereo unspecified)
    3.5, -12.8, 7.0, 1.1, -1.2%, 14.2
CC[C@]12c3[nH]c4cc(CCC(=O)N(C)C)ccc4c3CCN1C(=O)[C@@H](CC(=O)NC/C=C(\C)CCC=C(C)C)C[C@@H]2C(=O)N1CCN(C(=O)c2ccco2)CC1
    -9.8, 1.2, -2.2, -0.9, 17.4%, 8.0
COc1ccc2c(c1)c(=O)c(C(=O)c1ccc(F)cc1)cn2CC(=O)Nc1ccc2c(c1)OCCO2
    ., ., ., -0.2, 3.8%, 3.2
CC(NC(=O)c1ccccc1O)c1ccccc1 (stereo unspecified)
    1.6, -2.0, 7.2, -0.2, ., 6.8
Clc1ccc(SCc2cn3cccnc3n2)cc1
    3.5, 0.0, 9.0, -0.4, -5.3%[38.3 µM], -20.6
O=S(=O)(NCc1ccc(Cl)cc1)NCc1ccccc1F
    1.3, -1.3, -6.4, 1.2, -1.5%, 21.4
COc1cccc(C(=O)Nc2ccccc2OC(F)(F)F)c1
    9.6, 2.6, 3.0, 0.1, 0.1%, 7.5
O=C(Nc1ccc(N2CCN(C(=O)c3ccco3)CC2)cc1)c1ccc(F)cc1
    -5.2, -1.5, -2.2, -0.6, -0.4%, 0.0
CCOC(=O)c1ccccc1NC(=O)COC(=O)C(CC)Oc1ccccc1 (stereo unspecified)
    22.2, -0.7, 22.2, 1.8, 1.5%, 11.6
COc1ccc(OCC(=O)Nc2ncc3c(n2)CC(C)(C)CC3=O)cc1
    -0.5, -2.3, 1.9, -0.4, 1.7%, -14.8
Clc1ccccc1Cn1nnc2c(N3CCOCC3)nc(C3CC3)nc21
    5.2, -1.2, -3.4, 3.4, ?, 12.9
O=[N+]([O-])c1ccc(O)c(-c2nc(-c3ccccc3)c(-c3cccs3)[nH]2)c1
    -1.8, -5.1, -6.3, 2.1, ?, 14.1
CCN(CC)S(=O)(=O)c1ccc(N2CCCCC2)c(NC(=O)C2=COCCO2)c1
    -2.8, -1.8, -7.2, 1.4, 9.5%, 29.4
N#Cc1ccc(-n2c(-c3ccccc3)nnc2-c2ccccc2)cc1C#N
    12.4, -2.3, 10.7, 1.6, ., 19.5
O=C(C1CC1)N1CCc2cc(Br)cc(S(=O)(=O)Nc3ccc(F)c(F)c3)c21
    ., ., ., -0.9, -1.3%, -5.6
NS(=O)(=O)c1ccc(NC(=S)NC(=O)/C=C/c2cccs2)cc1
    14.7, -2.2, -6.9, -0.7, 8.1%, 9.5
CCc1ccc(NC(=O)CSc2nc3ccccc3c(=O)n2CCCC(=O)N2CCCC2)cc1
    12.6, -0.9, 0.2, -0.2, ?, -4.8
COC1=C(C)C(O)=C(C(=O)/C=C/c2ccccc2)C(=O)C1(C)C
    18.0, 1.3, ., 1.0, 2.3%, 0.7
CN(Cc1ccccn1)Cc1cn(Cc2ccccc2)nc1-c1ccc2c(c1)OCO2
    -2.4, -5.1, -14.9, 0.1, 2.1%, -5.5
O=C(CC1N=C2c3ccccc3N=C(SCC(=O)Nc3cccc(C(F)(F)F)c3)N2C1=O)NCc1cccs1 (stereo unspecified)
    ., ., ., 0.3, 3.2%, 8.6
CC(C)(C)c1csc(NC(=O)c2cccnc2Cl)n1
    -3.6, 9.2, 0.7, 0.0, 1.3%, 63.8
Cc1ccccc1C(=O)Nc1ccc2nc3n(c(=O)c2c1)CCCC3
    -16.0, -4.2, -19.6, -0.3, 6.2%, 2.0
c1coc(C2Nc3ccccc3C3OCCC23)c1 (stereo unspecified)
    -11.5, 1.2, -0.7, 0.0, 0.6%, -4.3
O=C(Nc1cc(-c2ccccc2)nn1C1CCCCC1)c1ccc(Cl)cc1
    11.2, 2.7, 1.7, -0.9, 7.6%, -7.2
CC(=O)Nc1ccc(NC(=O)Nc2ccccc2C)cc1
    -2.3, -3.2, ., -0.2, -0.3%, -7.6
O=C(c1cc2cc(Cl)cc(Cl)c2oc1=O)N1CCOCC1
    1.5, -3.0, 5.6, -0.8, 2.8%, -14.1
Cc1ccc(/C=N/N=C2\SCC(=O)N2CC2CC2)cc1
    1.2, -5.4, -16.4, -0.2, 7.8%, 7.8
Cc1ccc(NC(=O)N2CCc3ccccc32)cc1
    1.4, -2.2, 9.5, -0.4, -0.3%, 6.5
CC(C)CN(C(=O)CCC(=O)OCC(=O)N(C)c1ccccc1)c1c(N)n(CC(C)C)c(=O)[nH]c1=O
    6.9, -6.1, -4.2, -0.5, 0.9%, -5.9
CCOc1ccc(C(=O)NCc2cccnc2)cc1[N+](=O)[O-]
    4.2, -0.9, -2.2, -0.4, -0.2%, 4.7
O=C1NC[C@H](CCCCN2C[C@H](Cc3ccc(O)cc3)N(CCC3CCCCC3)C(=O)C2=O)N(CC2CCCCC2)C1=O
    1.5, ., -9.8, 0.6, 1.0%, .
COC(=O)C(O)(NC(=O)OCc1ccccc1)C(F)(F)F (stereo unspecified)
    5.2, 0.4, -13.2, -0.3, -0.6%, 22.7
COc1ccc(CCNC(=O)CN(c2ccc(C)cc2)S(=O)(=O)c2c(C)noc2C)cc1OC
    -2.9, -0.8, 1.9, -0.4, -0.9%, -7.5
Cc1c(CC(=O)NCC(=O)N[C@H](Cc2ccccc2)C(=O)O)c(=O)oc2cc(O)ccc12
    25.0, 1.9, 0.0, ., 0.1%, .
CCOc1ccccc1N1CCN(C(=O)c2ccc3[nH]c4c(c3c2)CCCC4)CC1
    ?, -1.2, -29.1, 0.6, 10.1%, 6.3
CCN(CC)S(=O)(=O)c1ccc(=O)n(CC(=O)N2Cc3ccccc3CC2C(N)=O)c1 (stereo unspecified)
    7.1, -0.7, -23.9, 0.6, 7.0%, -11.9
Cc1ccc(-n2ncc3c(N4CCCCCC4)ncnc32)cc1
    ., ., ., 1.6, 3.6%, 16.9

# Complete entries, looked up by structure:
# Results for Cc1ccccc1C(=O)Nc1ccc2nc3n(c(=O)c2c1)CCCC3 → Six1-Eya2 inh = -16.0; D2 ag = -4.2; CtBP-E1A blk = -19.6; TRPML1 agonist = -0.3; PINK1 expr mod = 6.2%; TRPML1 blocker = 2.0
# Results for c1coc(C2Nc3ccccc3C3OCCC23)c1 (stereo unspecified) → Six1-Eya2 inh = -11.5; D2 ag = 1.2; CtBP-E1A blk = -0.7; TRPML1 agonist = 0.0; PINK1 expr mod = 0.6%; TRPML1 blocker = -4.3

# Further results.
# Every second line gives: Six1-Eya2 inh, D2 ag, CtBP-E1A blk, TRPML1 agonist, PINK1 expr mod, TRPML1 blocker
COC(=O)c1ccc(CN2CCN(Cc3ccc(F)cc3)C(CCO)C2)cc1 (stereo unspecified)
    13.9, -0.8, 1.8, 0.3, -0.7%, -3.6
O=C(c1ccc(F)cc1)N1CCN(c2ccccn2)CC1
    0.0, -7.2, -2.7, 0.0, -1.2%, 6.5
O=C(CN1CCC(Cc2ccccc2)CC1)NC(=O)NC1CCCCC1
    -3.8, -6.8, 7.0, -0.3, 7.4%, -21.8
Cc1ccc(-c2nc(CS(=O)CC(=O)NC(C)CCc3ccccc3)c(C)o2)cc1 (stereo unspecified)
    -0.8, -0.6, ., 1.3, 1.2%, 17.3
COc1ccc(Oc2ccc(N/C=C3/CCCC3=O)cc2)cc1
    -3.4, 1.0, 9.1, -0.7, 8.4%, -6.5
